LASV entry inh – blocks Lassa virus binding to or entry into cells. Lassa virus pseudotype entry inhibition, cell reporter; control for the full effect not named in the record. Potency, µM (doses to about 37.9 µM), inactives show at the highest dose activity change, negative = inhibition, actives largely listed as inhibitors. actives 1.2% (n = 300,000). AID 540256; active means well fitted inhibition curve with a large enough effect; inconclusive means small, poorly fitted or top-dose-only effect, or effect the other way; inactive means flat fitted curve, though single readings scatter; tested in HEK293 cells; further: on the % scale 0 is the no-effect control and ±100 the full control effect; nearly all actives have a fitted effect of over 50% in size; luciferase read-out
RE007 growth inh – less growth of the S. pombe RE007 Vpr strain. S. pombe RE007 Vpr strain, BacTiter-Glo ATP luminescence, 24 h; control for the full effect not named in the record. Potency, µM (doses to about 92.2 µM), for inactives: top-dose activity change, negative = less growth. actives 0.21% (n = 360,000); active = well fitted falling curve with a large enough effect; inconclusive = small, poorly fitted or top-dose-only effect; inactive = no such curve, though single readings can be large or run the other way;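 further: on the % scale 0 is the no-effect control and ±100 the full control effect; nearly all actives have a fitted effect of over 50% in size; the assay follows cell death caused by Vpr and the record does not say whether a fall means rescue or toxicity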
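Fission yeast strain RE007, carrying one chromosomally integrated HIV-1 vpr copy, was seeded at OD 0.01 in PMG+AL medium with 23 nL pinned compound. After 24 h at 30 °C and 99% humidity, viability was read by BacTiter-Glo luminescence.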
Cruzain noTriton – inhibitors of Trypanosoma cruzi cruzain without detergent | AID 1476 | purified cruzain, Z-FR-AMC fluorescence, no detergent | P25779 | actives 2.3% (n = 200,000) | Potency, µM, for inactives: max response, negative = inhibition, usual class: inhibitors;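 further: plate controls were enzyme without inhibitor for no effect and buffer without enzyme for full effect; nearly all actives have a fitted effect of over 40% in size; top concentration of the series not given in the record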
Target sequence (P25779 123-467 limits assumed): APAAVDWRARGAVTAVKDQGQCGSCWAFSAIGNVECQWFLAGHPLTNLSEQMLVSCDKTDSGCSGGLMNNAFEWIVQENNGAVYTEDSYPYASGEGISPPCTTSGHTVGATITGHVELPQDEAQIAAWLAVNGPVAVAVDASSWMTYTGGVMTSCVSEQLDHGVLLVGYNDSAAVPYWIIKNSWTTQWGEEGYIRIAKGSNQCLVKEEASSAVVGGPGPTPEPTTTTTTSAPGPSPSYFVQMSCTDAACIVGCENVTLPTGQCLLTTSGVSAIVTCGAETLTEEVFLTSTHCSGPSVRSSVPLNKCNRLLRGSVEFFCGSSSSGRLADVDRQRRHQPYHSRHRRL
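Purified cruzain at 1.5 nM, pre-incubated 15 min with compound at room temperature in 100 mM sodium acetate pH 5.5, 5 mM DTT, 0.00005% Triton X-100. Reaction started with 2 uM Z-FR-AMC; AMC fluorescence increase over 60 s gives rate.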
SARS PLpro yeast – inhibitors of SARS-CoV papain-like protease in yeast; S. cerevisiae expressing SARS-CoV PLpro, growth rescue; control for the full effect not named in the record; Potency, µM (highest dose often 32.9 µM), inactives show top-dose activity, positive = growth rescue; actives 0.19% (n = 330,000); active means well fitted rising curve with a large enough effect; inconclusive means small, poorly fitted or top-dose-only effect; inactive means no such curve, though single readings can be large or run the other way; further: 0% is about no effect; nearly all actives have a fitted effect of over 55% in size; growth read by luminescence after 48 h
Cruzain Triton – blocks cruzain activity in presence of Triton detergent | P25779 | purified cruzain, Z-FR-AMC fluorescence, 0.01% Triton | Potency, µM, for the others: max response, negative = inhibition, most hits filed as inhibitors | actives 0.43% (n = 200,000) | AID 1478;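 further: plate controls were neutral wells for no effect and buffer without enzyme for full effect; nearly all actives have a fitted effect of over 40% in size; top concentration of the series not given in the record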
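Cruzain (1.5 nM) preincubated 15 min at RT with compound in 100 mM sodium acetate pH 5.5, 5 mM DTT, 0.01% Triton X-100. Reaction started with 2 uM Z-FR-AMC; AMC fluorescence (ex 360/em 450 nm) change over 60 s gave rate.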
StopGo reporter – FMDV 2A StopGo reporter, luciferase signal; human cells with a luciferase reporter of 2A StopGo recoding; control for the full effect not named in the record; Potency, µM (highest dose often 57.9 µM), for the others: at the highest dose signal change, negative = less light; actives 1.2% (n = 410,000); AID 1159524; active = well fitted falling curve with a large enough effect; inconclusive = small, poorly fitted or top-dose-only effect; inactive = no such curve, though single readings can be large or run the other way; tested in HEK293T cells; further: on the % scale 0 is the no-effect control and ±100 the full control effect; nearly all actives have a fitted effect of over 45% in size; luciferase light after 4 h
Marburg entry inh – blocks Marburg virus binding to or entry into cells. Marburg virus pseudotyped entry inhibition, cell reporter; control for the full effect not named in the record; about a third of the inactives were read at about 46 µM. actives 1.8% (n = 300,000). Potency, µM (top dose mostly 37.8 µM), inactives show at the highest dose activity change, negative = inhibition, usual class: inhibitors; active = well fitted inhibition curve with a large enough effect; inconclusive = small, poorly fitted or top-dose-only effect, or effect the other way; inactive = flat fitted curve, though single readings scatter; tested in HEK293 cells; about a fifth of its hits are not listed in these tables; further: on the % scale 0 is the no-effect control and ±100 the full control effect; luciferase read-out
NS1 inh – influenza NS1 inhibition | S. cerevisiae slowed by influenza A NS1, growth recovery by OD600 | Potency, µM (titrated, usually from 46.1 µM), without a hit: top-dose activity, positive = more growth | actives 0.4% (n = 270,000) | AID 2326; active means well fitted rising curve with a large enough effect; inconclusive means small, poorly fitted or top-dose-only effect; inactive means no such curve, though single readings can be large or run the other way; further: nearly all actives have a fitted effect of over 50% in size
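Growth recovery, yeast-based: influenza A NS1 expressed in S. cerevisiae causes slow growth, and suppressors are detected by OD600. The parent strain without NS1 is used as positive control.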
The depositor's hits bear a star; ? = inconclusive; . = not tested or not shown; & = joins results of further samples; [ ] = remark or other dose. Unless noted, the call rests on the fitted dose curve; in most records, active means well fitted curve in the direction sought with a large enough effect; inconclusive means small, poorly fitted or top-dose-only effect, or another doubt; inactive means no such curve, though single readings can be large; an effect the other way counts as inactive or inconclusive. Potency means the concentration at half of the fitted maximal effect.

The opening eight records, to show the layout:
SMILES	LASV entry inh	RE007 growth inh	Cruzain noTriton	SARS PLpro yeast	Cruzain Triton	StopGo reporter	Marburg entry inh	NS1 inh
CCCCC(=O)Nc1cccc(NC(=O)C(C)C)c1	10%	-2%	1%	2%	6.0%	2%	-2%	1%
Cc1cc(C)nc(NS(=O)(=O)c2ccc(NC(=O)COc3ccc(C(C)(C)C)cc3)cc2)n1	24%[46.1 µM]	.	?	.	-14%	72%[activator]	?	.
Cc1ccc(S(=O)(=O)NCCc2ccncc2)cc1C	0%	-13%	.	-1%	.	100%[activator]	-10%[46.1 µM]	.
CSCCC(NC(=O)C1CCCCC1)c1nc2ccccc2[nH]1 (stereo not drawn)	11%	2%	.	1%	.	-6%	5%[14.2 µM]	7%
CCc1cc(=O)oc2c3c(cc(OCC(=O)NCCC(=O)O)c12)OC(C)(C)CC3	13%[46.1 µM]	-2%	.	0%	.	-11%	9%[46.1 µM]	8%
COc1ccccc1CNC(=O)C1CCC(CNc2c(N3CCCCC3)c(=O)c2=O)CC1 (stereo not drawn)	.	-2%	.	1%	.	-18%	.	-9%
Cc1oc(-c2ccccc2F)nc1CS(=O)(=O)CC(=O)N1CCCCCC1	.	-3%	3%	0%	-1.1%	-23%	1%	4%
CCCc1ccc(OCC(O)CN2CCc3ccccc3C2)cc1 (stereo not drawn)	.	-11%	.	3%	.	-3%	.	-22%

The listing, from the start:
SMILES	LASV entry inh	RE007 growth inh	Cruzain noTriton	SARS PLpro yeast	Cruzain Triton	StopGo reporter	Marburg entry inh	NS1 inh
CCCCC(=O)Nc1cccc(NC(=O)C(C)C)c1	10%	-2%	1%	2%	6.0%	2%	-2%	1%
Cc1cc(C)nc(NS(=O)(=O)c2ccc(NC(=O)COc3ccc(C(C)(C)C)cc3)cc2)n1	24%[46.1 µM]	.	?	.	-14%	72%[activator]	?	.
Cc1ccc(S(=O)(=O)NCCc2ccncc2)cc1C	0%	-13%	.	-1%	.	100%[activator]	-10%[46.1 µM]	.
CSCCC(NC(=O)C1CCCCC1)c1nc2ccccc2[nH]1 (stereo not drawn)	11%	2%	.	1%	.	-6%	5%[14.2 µM]	7%
CCc1cc(=O)oc2c3c(cc(OCC(=O)NCCC(=O)O)c12)OC(C)(C)CC3	13%[46.1 µM]	-2%	.	0%	.	-11%	9%[46.1 µM]	8%
COc1ccccc1CNC(=O)C1CCC(CNc2c(N3CCCCC3)c(=O)c2=O)CC1 (stereo not drawn)	.	-2%	.	1%	.	-18%	.	-9%
Cc1oc(-c2ccccc2F)nc1CS(=O)(=O)CC(=O)N1CCCCCC1	.	-3%	3%	0%	-1.1%	-23%	1%	4%
CCCc1ccc(OCC(O)CN2CCc3ccccc3C2)cc1 (stereo not drawn)	.	-11%	.	3%	.	-3%	.	-22%
Cc1c(NS(=O)(=O)c2cc(C(=O)N(C)Cc3ccccc3)ccc2Cl)c(=O)n(-c2ccccc2)n1C	-20%	-3%	.	-10%	.	32%[activator]	-2%	.
O=C(CCC1CCN(Cc2ccc(C#CCCO)cc2)CC1)NC1CC1	.	8%	.	-1%	.	-22%	.	6%
Cc1cccn2c(=O)nc(SCC(=O)N3CCCCCC3)nc12	11%	3%	.	1%	.	-8%	2%[46.1 µM]	.
COc1cccc(C(=O)/C=C/Nc2ccc(S(=O)(=O)Nc3cnc4ccccc4n3)cc2)c1	-4%	-1%	-6%	25%	-1.1%	55%[activator]	?	21%
Cn1c(/C=C/c2ccc([N+](=O)[O-])o2)nc2ccccc2c1=O	2.8µM*	?	-7%	-20%	-7.1%	25µM*	?	-94%
CCn1c(SCC(=O)Nc2ccc3c(c2)OCCO3)nnc1-c1ccccn1	1%	18%	-3%	-2%	1.5%	-6%	20%	-16%
Cc1c(NC(=O)c2csc3c2CCCC3)c(=O)n(-c2ccccc2)n1C	12%	-18%	.	1%	.	-12%	11%	15%
O=C(CNS(=O)(=O)c1ccccc1)OCC(=O)c1ccccc1Cl	.	20%	.	3%	.	20%	.	2%
CCc1cccc(Nc2c3c(nc4ncnn24)CCC3)c1	.	2%	.	-2%	.	-23%	.	-7%
Cc1ccc2c(CC(=O)NNC(=O)c3ccncc3)coc2c1	-14%	48%	.	2%	.	-5%	9%[46.1 µM]	.
Oc1cccc(/C=N/Nc2cc(N3CCOCC3)nc(N3CCOCC3)n2)c1	?	.	-7%	-8%	-9.4%	-13%	2.6µM*	0%
CSc1nnc(-c2ccccc2)c(=O)[nH]1	21%	11%	-2%	4%	0.1%	-6%	-31%	-17%
Cc1ccc2nc(-c3cccnc3)c(NC3CCCC3)n2c1	-3%	-23%	0%	-15%	-3.7%	-16%	?	-25%
Cc1cc(C)cc(NC(=O)CN2CCN(C(=O)C3CCCO3)CC2)c1 (stereo not drawn)	.	-3%	.	-2%	.	-1%	.	0%
COc1cc(/C=N/NC(=S)NC(C)C)ccc1OCC(=O)Nc1c(C)cc(C)cc1C	13%	-1%	21%	8%	-0.8%	-3%	?	?
Cc1ccccc1NC(=O)c1cccc(NC(=O)c2ccco2)c1	1%	2%	.	-2%	.	-13%	-1%	-68%
C=CCn1c(SCC(=O)NCc2ccc3c(c2)OCO3)nnc1C1CCCCC1	-29%	10%	1%	-2%	0.9%	-21%	?	-4%
CC1=NNC(=O)C1CCC(=O)N/N=C/C=C/c1ccccc1 (stereo not drawn)	2%[46.1 µM]	-2%	-2%	-5%	-5.8%	-9%	0%[46.1 µM]	-1%
Cc1onc(-c2ccccc2)c1C(=O)Nc1ccc(Cl)cn1	-3%	1%	.	0%	.	-21%	?	-3%
O=S(=O)(NCC1(N2CCOCC2)CCCCC1)c1ccc(F)c(F)c1F	7%	7%	.	-1%	.	-11%	0%	.
COc1ccc(N2CCN(CCCNC(=O)CN3C(=O)COc4ccccc43)CC2)cc1	.	-2%	.	2%	.	11%	.	-1%
CCOC(=O)C1CCN(c2ncnc3c2c(-c2ccccc2)cn3-c2cccc(C)c2)CC1	?	.	10%	.	0.1%	-29%	.	.

Record cards, from the list above. Order of values: LASV entry inh	RE007 growth inh	Cruzain noTriton	SARS PLpro yeast	Cruzain Triton	StopGo reporter	Marburg entry inh	NS1 inh
Cc1c(NS(=O)(=O)c2cc(C(=O)N(C)Cc3ccccc3)ccc2Cl)c(=O)n(-c2ccccc2)n1C is entered as -20%	-3%	.	-10%	.	32%[activator]	-2%	.
CCn1c(SCC(=O)Nc2ccc3c(c2)OCCO3)nnc1-c1ccccn1 is entered as 1%	18%	-3%	-2%	1.5%	-6%	20%	-16%

(cont.)
SMILES	LASV entry inh	RE007 growth inh	Cruzain noTriton	SARS PLpro yeast	Cruzain Triton	StopGo reporter	Marburg entry inh	NS1 inh
COc1cc(C(=O)Oc2cc(C)cc(C)c2)cc(OC)c1OC	-16%	-13%	10%	26%	-5.6%	-10%	-23%	5%
O=C(NCC(=O)N(c1ccccc1F)C(C(=O)NC1CCCC1)c1ccncc1)c1ccco1 (stereo not drawn)	24%	4%	.	-1%	.	13%	-19%[46.1 µM]	3%
CCOC(=O)N1CCN(c2nc3ccc(C)cc3n3cnnc23)CC1	.	2%	.	2%	.	3%	.	3%
CC(NCCc1ccc(O)cc1)C(O)c1ccc(O)cc1 (stereo not drawn)	0%	2%	0%&-3%	1%	2.3%&5.3%	-23%&74%	-4%&-4%&-4%&-4%	6%
COc1cccc(NC(=O)COc2ccc(Br)c(C)c2)c1	.	-18%	.	-13%	.	61%[activator]	.	-47%
O=C(c1ccc(NS(=O)(=O)c2cccc([N+](=O)[O-])c2)cc1)N1CCCCCC1	-29%	-21%	.	0%	.	-15%	-28%[46.1 µM]	.
Cc1ccc2oc(-c3ccc(C)c(NC(=O)Cc4cccs4)c3)nc2c1	1%	19%	-5%	?	18%	23%	10%	1%
Cc1ccc(CNC(=O)C2CC(=O)N(C3CCCCCC3)C2)cc1 (stereo not drawn)	-2%	7%	.	2%	.	-7%	-1%[46.1 µM]	.
O=C(N/C(=C\c1ccccc1)C(=O)N1CCOCC1)c1ccccc1Cl	.	-1%	.	7%	.	-12%	.	1%
CC(=O)c1cccc(NC(=O)c2sc(-n3nc(C)c(CCC(C)C)c3C)nc2C)c1	-1%[46.1 µM]	.	2%	.	-1.5%	-2%	-13%[46.1 µM]	.
COc1ccccc1N(CC(=O)NC(C)(C)C)S(=O)(=O)c1cccs1	?	1%	16%	1%	-1.1%	-11%	?	-14%
CSc1nc(C)c(CCOC(=O)c2ccccc2)c(=O)[nH]1	-1%	-7%	-9%	7%	1.0%	-17%	12%	-16%
CC(=O)c1ccc(NC(=O)C(C)Nc2ccc(Cl)cc2)cc1 (stereo not drawn)	0%[46.1 µM]	0%	.	-23%	.	-16%	4%[46.1 µM]	.
O=C(NCCCN1CCN(c2cccc(Cl)c2)CC1)Nc1ccccc1C(F)(F)F	21%[46.1 µM]	.	15%	.	0.4%	-31%	?	.
Cc1cc(O)c(CN2CCN(c3ccc(F)cc3)CC2)c2oc(=O)cc(C)c12	2%[46.1 µM]	.	?	.	?	-26%	7%[46.1 µM]	.
O=C(O)/C=C/C(=O)Nc1ccc(N2CCOCC2)nc1N1CCOCC1	10%[46.1 µM]	4%	.	1%	.	1%	4%[46.1 µM]	5%
CCOc1ccc2nc(/N=C/c3c(C)[nH]n(-c4ccccc4)c3=O)sc2c1	-22%	?	?	-47%	-4.1%	-3%	4%	-17%
Oc1ccc(/C=N/Nc2ccnc3cc(Cl)ccc23)c(O)c1	.	33%	.	1%	.	26%	2%	-13%
